Source: PubChem BioAssay
VDR inhibitor: vitamin D3 receptor (human) inhibition. P11473. actives 0.93% (n = 400,000). Potency, µM, for inactives: max response, negative = inhibition, most hits filed as inhibitors. VDR-SRC2-3 peptide fluorescence polarization, 2 h; active = well fitted inhibition curve with a large enough effect; inconclusive = small, poorly fitted or top-dose-only effect, or another doubt; inactive = no such curve, though single readings can be large or run the other way; also: series mostly up to about 120 µM
Target sequence (P11473 whole entry, looked up): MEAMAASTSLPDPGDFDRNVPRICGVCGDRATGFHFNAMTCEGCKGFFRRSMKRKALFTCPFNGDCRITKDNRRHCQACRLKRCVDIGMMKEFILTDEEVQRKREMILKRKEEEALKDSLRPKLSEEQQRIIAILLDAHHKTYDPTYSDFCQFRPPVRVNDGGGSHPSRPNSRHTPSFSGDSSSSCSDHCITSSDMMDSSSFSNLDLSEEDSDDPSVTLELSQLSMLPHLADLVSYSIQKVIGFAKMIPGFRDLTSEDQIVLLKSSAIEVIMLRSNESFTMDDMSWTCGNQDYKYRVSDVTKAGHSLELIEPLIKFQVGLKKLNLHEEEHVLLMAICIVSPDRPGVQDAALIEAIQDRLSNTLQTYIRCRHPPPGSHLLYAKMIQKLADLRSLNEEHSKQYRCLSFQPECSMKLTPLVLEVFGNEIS
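VDR–SRC2-3 interaction, FP format. Cmpds 23 nl via pintool, brief spin, 2 h ambient incubation.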
* = called active by the depositor; ? = inconclusive; & = joins results of further samples; [ ] = dose if it differs, or a comment. % is scaled to controls: 0 for no effect and ±100 for the full control effect; potency is read from the fitted curve at half-maximal effect. The list is partial, so the mix of outcomes need not match the whole.

molecule | VDR inhibitor
Cc1ccc(S(=O)(=O)N2CCC(=O)N([C@H](COCc3cccc(C(F)(F)F)c3)Cc3ccccc3)CC2)cc1 | -21.8%
CCN(CC)S(=O)(=O)c1ccc(C(=O)NCCSc2c(-c3ccccc3)[nH]c3ccccc23)cc1 | -8.2%
COCCNC(=O)CCc1c(C)nc2c(c(C)nn2-c2ccc(C)c(C)c2)c1C | -11.5%
CCCn1c(N)c(C(=O)CSc2nc(C)cs2)c(=O)[nH]c1=O | 6.4%
CC1=C/C(=N\N=C2\NC(=O)C(CC(=O)Nc3ccccc3)S2)CC(C)(C)C1 (configuration not stated) | -16.9%
C=CCn1c(SCn2nnc3ccccc3c2=O)nnc1-c1ccc(F)cc1 | -3.7%
Cc1cc(N2C(=O)C(O)=C(C(=O)c3ccco3)C2c2cccc(Oc3ccccc3)c2)no1 (configuration not stated) | -22.7%
CCc1ccccc1NC(=O)Nc1ccc(F)cc1F | -4.8%

molecule | VDR inhibitor
Cc1noc(C)c1-c1ccc2ncnc(Nc3ccc(F)cc3)c2c1 | -24.9%
Cc1ccc(NC(=O)Cn2cc([N+](=O)[O-])nc2C)cc1C | 9.1%
CCC(c1nnnn1C(C)(C)CC)N(CCCO)Cc1cc2cccc(C)c2[nH]c1=O (configuration not stated) | -3.8%
Cc1ccc(-n2nc(C(=O)N(C)c3ccc(C)c(C)c3)c3c4ccccc4n(C)c3c2=O)cc1 | -16.6%
O=C(c1cc(C(F)(F)F)cc(C(F)(F)F)c1)N1CCC2(CCCN(c3ccccn3)C2)CC1 | -4.8%
O=C(CCCn1nnnc1CN1CCOCC1)N1CCC(c2ccc(F)cc2)C1 (configuration not stated) | 5.2%
OCCN1CCN(CC(O)COc2ccc(Cl)cc2)CC1 (configuration not stated) | -4.2%
Cc1ccc(C)c(CN2C(=O)C(O)(c3c(C)[nH]c4ccccc34)c3ccccc32)c1 (configuration not stated) | -2.0%

molecule | VDR inhibitor
OCC1(Cc2ccccc2)CCCN(Cc2ccc(-c3ccco3)cc2)C1 (configuration not stated) | 4.8%
CC1=C(C(=O)Nc2ccccn2)C(c2ccc(Cl)cc2)NC(=S)N1 (configuration not stated) | 3.0%
O=C(COC(=O)c1ccc(S(=O)(=O)N2CCOCC2)cc1)NCc1cccs1 | -7.6%
CN1C(=O)[C@H](Cc2ccc([N+](=O)[O-])cc2)NC1=S | -12.9%
COc1cc(S(=O)(=O)NCCN2CCOCC2)ccc1-n1cnnn1 | 31.2%[activator]
O=C1[C@@H]2[C@H](C(=O)N1Cc1cccnc1)[C@H]1C=C[C@@H]2C1 | 3.1%
CC(O)Cn1c(=O)c2c(nc(Br)n2Cc2ccccc2)n(C)c1=O (configuration not stated) | 1.9%
CCOC(=O)c1ccccc1NC(=O)CSc1c(C)cnc2c1c(=O)n(C)c(=O)n2C | -1.3%

molecule | VDR inhibitor
CC(C)(OC(=O)c1cccs1)c1cc2ccccc2c(=O)o1 | -15.5%
Cc1cccc(Nc2nc(N)c([N+](=O)[O-])c(N3CCOCC3)n2)c1 | 9.5%
Cc1cc2cc(CNC(=O)C3CC3)ccc2n1C | -4.3%
COc1ccc(N(C(=O)Nc2ccc(Cl)cc2)C2=NCCC2)cc1 | 9.7%
COCC(=O)N1CCCC(C(=O)c2ccc(-c3ccccc3)c(F)c2)C1 (configuration not stated) | 7.6%
CCSc1ncc(Cl)c(C(=O)Nc2c(C(=O)Nc3cccc(C)c3)oc3ccccc23)n1 | 2.7%
O=C(COC(=O)C1c2ccccc2Oc2ccccc21)NC1CCS(=O)(=O)C1 (configuration not stated) | ?
S=c1nc(-c2ccccc2)[nH]n1-c1ccccc1 | -30.6%

molecule | VDR inhibitor
COCCN(C)C(=O)CC1C(=O)NCCN1CC(c1ccccc1)c1ccccc1 (configuration not stated) | -7.2%
CCOC(=O)N1CCN(S(=O)(=O)c2ccc(OCC)cc2)CC1 | -4.1%
Cn1c(=O)[nH]c(=O)c2c1nc(Br)n2CCSc1ncccn1 | 8.2%
NC(=S)N=Nc1c(O)n(C2OC(=O)c3ccccc32)c2ccccc12 (configuration not stated) | -10.9%
Cc1ccc(NS(=O)(=O)c2cccc(C(=O)Nc3cccnc3)c2)c(C)c1 | 7.1%
Cc1ccccc1NC(=O)C(C)c1ccc(-c2ccccc2)c(F)c1 (configuration not stated) | -2.7%
CCOC(=O)c1nn(C)c(C)c1Cl | -24.7%
CCCCCc1ccc(-c2ccc(Br)cc2)nc1 | -23.0%

Arranged by heavy-atom count (high to low): part of the list above
molecule | VDR inhibitor
Cc1ccc(NS(=O)(=O)c2cccc(C(=O)Nc3cccnc3)c2)c(C)c1 | 7.1%
Cc1ccccc1NC(=O)C(C)c1ccc(-c2ccccc2)c(F)c1 (configuration not stated) | -2.7%
Cn1c(=O)[nH]c(=O)c2c1nc(Br)n2CCSc1ncccn1 | 8.2%
CCCCCc1ccc(-c2ccc(Br)cc2)nc1 | -23.0%
CCOC(=O)c1nn(C)c(C)c1Cl | -24.7%

New compounds follow:
molecule | VDR inhibitor
C/C(=C\C(=O)c1ccc(Br)cc1)Nc1ccc(Cl)cc1 | -9.9%
CSCC[C@H](NC(=O)N1CCn2c1nc1ccccc12)C(=O)NC1CCCCC1 | -1.2%
CCOC(=O)c1sc(/S(C)=N\S(=O)(=O)c2cccc(Cl)c2)c2c1CCC=C2 (configuration not stated) | -16.2%
Cc1cc2oc(C(=O)N(Cc3cccs3)C3CCS(=O)(=O)C3)cc(=O)c2cc1Cl (configuration not stated) | -5.5%
O=C(/C=C/c1ccccc1[N+](=O)[O-])N1CCCCC1 | 10.6%
COC(=O)c1cc(OC)c(OC)cc1NC(=O)CSc1ccccc1 | -2.1%
CCOC(=O)c1c(C)n(C)c2ccc(O)c(CN(CC)CC)c12 | 1.3%
O=C(Nc1ccccc1F)c1ccc(-n2cncn2)nc1 | 1.3%

molecule | VDR inhibitor
CC(/C=N/NC(=O)Cn1nnc(N)n1)=C\c1ccc(C(C)C)cc1 | -12.0%
Cc1ccc(S(=O)(=O)NCCCN2CCCC2)cc1 | 14.4%
Cc1ccc(S(=O)(=O)N2CCC(C(=O)OCC(=O)N(C)c3ccccc3)CC2)cc1C | -15.5%
CCNCc1cc2cc(C)ccc2[nH]c1=O | 22.0%
COC(=O)Cc1ccc(OC(=O)c2cccc(S(=O)(=O)N3CCN(C)CC3)c2)cc1 | 7.3%
CCCc1cc(C(=O)Nc2sc(C)c(CC)c2C#N)no1 | ?
CNC(=O)c1c(NC(=O)CS(=O)(=O)c2ccccc2)sc(C)c1C | -24.1%
Cc1ccc2[nH]c(=O)c(CN(C(=O)c3cccc([N+](=O)[O-])c3)C(C)C)cc2c1 | 1.9%

molecule | VDR inhibitor
Fc1ccc(Cn2nnnc2CN2CCN(C3CCCC3)CC2)cc1 | 0.4%
COc1ccccc1-c1c(C)nn2c(N3CCN(c4ccc(F)cc4)CC3)cc(C)nc12 | 1.7%
COC(=O)/C=C1\S/C(=N/N=C/c2ccc(Cl)cc2)NC1=O | -14.2%
Cc1ccc(S(=O)(=O)Nn2c(C)nnc2-n2nc(C)cc2C)cc1 | -0.7%
O=C(O)c1ccn2c(C(=O)c3ccc(Cl)cc3)c(-c3ccccc3)cc2c1 | -5.8%
CCOC(=O)c1c(S(=O)(=O)NCC(=O)N2CCN(c3ccccc3)CC2)c(C)n(C)c1C | 3.3%&0.0%
COc1cc(S(=O)(=O)NCCCn2ccnc2)ccc1F | -10.6%
CC(C)n1cc(C(=O)N2CCCC(N3CCN(c4ccc(F)cc4)CC3)C2)cn1 (configuration not stated) | -6.0%

molecule | VDR inhibitor
Cc1cccc(NC(=S)NC2CCSc3ccccc32)c1 (configuration not stated) | -3.3%
Cc1cc(C)c2sc(N(CCCN(C)C)C(=O)c3ccc(S(=O)(=O)N(C)Cc4ccccc4)cc3)nc2c1 | -14.8%
Cc1ccc(NC(=O)c2c(O)c3ccccc3n(C)c2=O)nc1 | 8.5%
COc1ccc(CC(=O)NNC(=S)Nc2ccccc2)cc1Cl | -1.5%
CS(=O)(=O)N1CCN(c2ccc(NC(=O)CSc3nnc(-c4ccco4)o3)cc2)CC1 | 7.9%
COc1ccc(N2CCN(S(=O)(=O)c3cccs3)CC2)cc1 | -7.2%
O=C1N/C(=C/c2ccco2)C(=O)N1Cc1ccccc1F | -9.6%
CCOCN(C(=O)Cn1c(COC)nc2ccccc21)c1c(C)cccc1CC | 12.7%&14.4%

molecule | VDR inhibitor
O=C(NCc1ccco1)c1ccc(N2CCOCC2)c([N+](=O)[O-])c1 | 0.4%
COc1ccc2c(c1)[C@H]1[C@H](CO2)[C@H](c2ccccc2)[C@]2(C)C(=O)N(CC3CCCO3)CC(=O)N12 (some centres not stated) | 4.0%
C/C(=N\NC(=O)c1cc(-c2cccnc2)nc2ccccc12)c1ccccc1O | 1.0%
CC1CCCCN1C(=O)C1CCN(S(=O)(=O)c2ccc(-n3cnnn3)cc2)CC1 (configuration not stated) | 2.1%
COc1ccc(CNCc2ccccc2C(F)(F)F)cc1 | -28.2%
O=C(CN(C(=O)c1cc2c(s1)CCC2)C1CCCC1)NCc1cccs1 | -5.7%
Cc1cccc(N2CCn3c2nc2c3c(=O)n(C/C=C/c3ccccc3)c(=O)n2C)c1 | 8.9%
C#CCOCCOCCOCCNc1nc(N2CCN(C(=O)[C@H](CCC(=O)O)n3cc(C(N)CO)nn3)CC2)nc(N2CCN(C(=O)[C@H](CCC(=O)O)n3cc(C(N)[C@H](C)CC)nn3)CC2)n1 (some centres not stated) | -11.1%

molecule | VDR inhibitor
Nc1ccc2c(c1)nc(Cc1ccccc1)n2CCO | -14.1%
CN(c1ccccc1)c1nccc(=O)[nH]1 | -9.1%
Cc1ccc(S(=O)(=O)c2nnn3c2nc(N2CCN(c4ccccc4F)CC2)c2ccccc23)cc1C | 1.6%
Cc1ccc(NC(=O)CCC(=O)NNS(=O)(=O)c2ccccc2)c(C)c1 | -11.0%
CC1=NN(C(=O)c2ccccc2-n2cccc2)C(O)(C(F)(F)F)C1 (configuration not stated) | 0.9%
CC(C)(C)OC(=O)N1CCC(Cc2cc(-c3ccc(Cl)cc3)no2)(C(=O)O)CC1 | ?
COc1ccc(C2c3c4c(n(C)c3CCN2C)CCN(C)C4c2ccc(OC)cc2)cc1 (configuration not stated) | 8.0%
CCOC(=O)N1CCC(NC(=O)C2CCCN(S(=O)(=O)c3ccc4c(c3)oc(=O)n4C)C2)CC1 (configuration not stated) | -7.0%

molecule | VDR inhibitor
CC(C)Oc1ccc(S(=O)(=O)N2CCOCC2)cc1NC(=O)CCCSc1ccccc1 | -1.3%
CCCC(=O)NCCc1ccc(S(N)(=O)=O)cc1 | 4.4%
CCOc1ccc(-n2c(=O)c3c(C)c(C(=O)N(C)C)sc3n(Cc3cc(C)ccc3C)c2=O)cc1 | 13.4%
CC1=C(C(=O)N2CCCC(N3CCN(c4cccc(C(F)(F)F)c4)CC3)C2)OCCO1 (configuration not stated) | 8.9%
CN(C)N=Nc1ccc2nc[nH]c2c1 | 35.5µM*
CC(=O)Nc1cccc(Oc2ccc3c(c2)C(=O)NC3=O)c1 | 0.3%
O=C(COC(=O)c1cc(S(=O)(=O)N2CCOCC2)ccc1Cl)Nc1ccccc1Cl | -5.5%
N#CC1(C#N)C(c2ccccc2)OC23CCCCCC2C1(C#N)C(=N)O3 (configuration not stated) | 4.2%

molecule | VDR inhibitor
CCCN(CC(=O)Nc1ccccc1OC)C(=O)c1cccc(S(=O)(=O)NCc2ccccc2)c1 | 5.0%
O=C(CN(c1ccc(F)cc1)S(=O)(=O)c1ccccc1)NCCSC1CCCCC1 | 1.1%
O=C(NC1CCCCCC1)c1cc(S(=O)(=O)N2CCOCC2)ccc1N1CCCCC1 | -10.8%
CC(=O)N1CCN(C(=S)Nc2ccc(Oc3ccccc3)cc2)CC1 | -16.1%
CC(C)(C)c1cc(NC(=O)COC(=O)c2ccc3c(=O)n4c(nc3c2)CCC4)n(-c2ccccc2)n1 | -10.1%
COC(=O)c1ccc(COc2cccc3c2CCN(Cc2ccccc2)C3=O)o1 | -10.0%
CC(C)Cn1c(N)c(C(=O)NCc2cccs2)c2nc3ccccc3nc21 | -11.7%
CCOC(=O)N1CCN(Cc2cn[nH]c2-c2cccc3ccccc23)CC1 | -14.4%

molecule | VDR inhibitor
Cc1cc(NS(=O)(=O)c2ccc(OCCNS(C)(=O)=O)cc2)no1 | -0.8%
CC1=C/C(=N\OC(=O)/C=C/c2ccccc2)C(C)=CC1=O | 3.5%
COc1ccc(OC)c(NC(=O)CSc2c3c(nc4ccccc24)CCCC3)c1 | ?
O=C(NNC(=O)C1CC1)c1cc(=O)[nH]c2ccccc12 | -3.7%
COc1ccccc1CNC(=O)CS(=O)(=O)Cc1ccccc1 | -6.6%
O=C(Nc1ccccc1-c1nnn(CC(=O)N2CCOCC2)n1)c1ccccc1F | -7.2%
COc1ccc(S(=O)(=O)N(CCc2ccccc2)CC(=O)O)cc1C | ?
O=C(O)CCC(=O)CCC(=O)c1ccc(Cl)cc1 | ?

molecule | VDR inhibitor
Cc1ccc(S(=O)(=O)Nc2ccc(-c3nnc(SCc4ccccc4Cl)o3)cc2)cc1 | 6.4%
Cn1cc(CCC(=O)N2CCCC(C(=O)c3ccc(C(C)(C)C)cc3)C2)cn1 (configuration not stated) | -22.3%
CC(=O)c1c(C)[nH]c(C(=O)Nc2cccc(S(=O)(=O)N(C)C)c2)c1C | 4.7%
c1ccc2c(c1)ncn2CCN1CCCCC1 | 9.6%
CCOC(=O)CC1C(=O)NCCN1C(=O)c1cccc(OC)c1 (configuration not stated) | -16.4%
